HPGD block = HPGD (human) dehydrogenase inhibition; purified HPGD, NADH fluorescence kinetic, PGE2 substrate; P15428; Potency, µM, inactives show top-dose activity change, negative = inhibition, usual class: inhibitors; actives 4.3% (n = 150,000); active = well fitted inhibition curve with a large enough effect (not every such curve was filed as active); inconclusive = small, poorly fitted or top-dose-only effect, or another doubt; inactive = no such curve, though single readings can be large or run the other way;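 note: top concentration of the series not given in the record; plate controls included wells without enzyme; inactives centre near -10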
Target sequence (P15428 whole entry, looked up): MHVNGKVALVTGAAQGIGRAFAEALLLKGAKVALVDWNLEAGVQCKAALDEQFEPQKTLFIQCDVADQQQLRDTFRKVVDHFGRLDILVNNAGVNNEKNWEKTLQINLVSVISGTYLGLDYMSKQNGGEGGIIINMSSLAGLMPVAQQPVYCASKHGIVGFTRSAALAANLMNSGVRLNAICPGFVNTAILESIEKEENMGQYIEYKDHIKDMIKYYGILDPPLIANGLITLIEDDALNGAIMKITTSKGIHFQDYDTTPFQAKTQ
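20 nM HPGD preincubated 15 min at room temperature with compound in 50 mM Tris-HCl pH 8, 0.01% Tween 20. Started with 1 mM NAD+ and 30 uM prostaglandin E2; NADH fluorescence (360/450 nm) read 5 times over 30-s intervals, last minus first.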
* = called active by the depositor; & = joins results of further samples. % is set by controls: 0 for no effect and ±100 for the full control effect; potency is the fitted concentration of half-maximal effect.

How did O=C(NNC(=O)c1ccccc1Cl)c1cccs1 do in these assays?
HPGD block: -8.3%

What do the screens show for `Cc1ccc(CCNC(=O)C2CCC(CNc3c(N4CCC(C)CC4)c(=O)c3=O)CC2)cc1` (stereo not drawn)?
HPGD block: inconclusive

What do the screens show for `OCCSc1nncn1/N=C/c1c[nH]c2ccccc12`?
HPGD block: -13.2%

What do the screens show for `CCC1=NNC(=O)C(CC(=O)Nc2ccccc2)c2cc(OC)c(OC)cc21` (stereo not drawn)?
HPGD block: -9.6%

What do the screens show for `CNc1nc(Oc2ccc(C(=O)OC)cc2)nc(SC)n1`?
HPGD block: -8.2%

How did CC1=NN(c2ccccc2)C(=O)/C1=C\c1c(C)[nH]n(-c2ccccc2)c1=O do in these assays?
HPGD block: -16.2%

How did Cc1ccc(N=Nc2c(O)ccc3cc(S(=O)(=O)O)ccc23)cc1 do in these assays?
HPGD block: -23.8%

How did CN1CCN(c2ccnc(-c3cccc(NS(C)(=O)=O)c3)n2)CC1 do in these assays?
HPGD block: -11.5%

What do the screens show for `COc1cc(NC(=O)C2CCCCC2)c2ncccc2c1`?
HPGD block: -9.0%

Results for COc1ccccc1NC(=O)N1CCc2[nH]c3ccc(Cl)cc3c2C1 ?
HPGD block: -10.8%

Continued (six carried over from the part before).
What do the screens show for `CNc1nc(Oc2ccc(C(=O)OC)cc2)nc(SC)n1`?
HPGD block: -8.2%

How did CC1=NN(c2ccccc2)C(=O)/C1=C\c1c(C)[nH]n(-c2ccccc2)c1=O do in these assays?
HPGD block: -16.2%

How did Cc1ccc(N=Nc2c(O)ccc3cc(S(=O)(=O)O)ccc23)cc1 do in these assays?
HPGD block: -23.8%

How did CN1CCN(c2ccnc(-c3cccc(NS(C)(=O)=O)c3)n2)CC1 do in these assays?
HPGD block: -11.5%

What do the screens show for `COc1cc(NC(=O)C2CCCCC2)c2ncccc2c1`?
HPGD block: -9.0%

Results for COc1ccccc1NC(=O)N1CCc2[nH]c3ccc(Cl)cc3c2C1 ?
HPGD block: -10.8%

How did COc1ccc(OC)c(CN2CCN(C(=O)c3cccs3)CC2)c1 do in these assays?
HPGD block: -7.1%

How did C=CCn1c(SCC(=O)N2CCN(c3ccccc3)CC2)nnc1-c1ccco1 do in these assays?
HPGD block: -4.9%

How did Oc1ccc(-c2nc3cnccn3c2Nc2ccc3c(c2)OCCO3)cc1 do in these assays?
HPGD block: 11.2µM*

How did CCCCN1C(=O)C2(NNc3ccccc3O2)c2ccccc21 (stereo not drawn) do in these assays?
HPGD block: 31.6µM*

How did Cc1ccc(OCC(O)CN2CCN(Cc3ccc4c(c3)OCO4)CC2)c(C)c1 (stereo not drawn) do in these assays?
HPGD block: -6.0%

Results for CSCCC(NC(=O)c1cc(CC(C)C)oc1C)C(=O)O (stereo not drawn) ?
HPGD block: -13.4%

How did Nc1c(C(=O)N2CCOCC2)sc(=S)n1-c1ccccc1 do in these assays?
HPGD block: 11.2µM*

Results for CCOC(=O)/C(=C/c1ccc(N2CCC(c3ccccc3)=N2)cc1)C(C)=O ?
HPGD block: -19.3%

What do the screens show for `Cc1cc2ccccc2n1CCNC(=O)C(C)C`?
HPGD block: -3.2%

What do the screens show for `Cn1c(NCc2ccco2)nc2c1c(=O)n(Cc1ccc(Cl)cc1Cl)c(=O)n2C`?
HPGD block: -11.6%

For reference, part of the list above:
What do the screens show for `Cc1cc2ccccc2n1CCNC(=O)C(C)C`?
HPGD block: -3.2%

What do the screens show for `Cn1c(NCc2ccco2)nc2c1c(=O)n(Cc1ccc(Cl)cc1Cl)c(=O)n2C`?
HPGD block: -11.6%

Continued.
How did CCOC(=O)c1cc(C(=O)OCC)c2cccc(C)n2c1=O do in these assays?
HPGD block: -17.8%

What do the screens show for `Cc1cc(C(=O)NCCC2=CCCCC2)c(C)o1`?
HPGD block: inconclusive

What do the screens show for `Cc1nc2c3cc(F)ccc3n(Cc3ccc(F)cc3)c2s1`?
HPGD block: -16.2%

How did NC[C@H]1O[C@@H](n2cnc3c(=O)[nH]c(N)nc32)[C@@H](O)[C@@H]1O do in these assays?
HPGD block: -6.6%

What do the screens show for `COc1ccc(-c2c3c(=O)n(C)c(=O)n(C)c3cn2C2CCCCC2)cc1`?
HPGD block: -23.3%

Results for CCOc1ccc2nc(Nc3nc(CSc4nnnn4-c4ccccc4)cc(=O)[nH]3)nc(C)c2c1 ?
HPGD block: -19.0%

Results for Cn1c(=O)c(=O)n(C)c2cc(S(=O)(=O)NCCc3ccccc3)ccc21 ?
HPGD block: -7.9%

Results for Nc1nnc(SCCCC(=O)c2ccc(Br)cc2)s1 ?
HPGD block: 3.55µM*

How did CC(=O)Cc1nsc(NC(=O)c2ccc(COc3ccccc3)o2)n1 do in these assays?
HPGD block: -18.4%

How did Cc1[nH]nc2c1C(CCc1ccccc1)C(C#N)=C(N)O2 (stereo not drawn) do in these assays?
HPGD block: -29.7%

What do the screens show for `Cc1cccc(-n2c(SCC(N)=O)nc3c(c2=O)C2(CCCCC2)Cc2ccccc2-3)c1`?
HPGD block: inconclusive

What do the screens show for `O=C(NCc1cccnc1)C1CC(=O)N(c2ccc(Cl)cc2)C1` (stereo not drawn)?
HPGD block: -5.5%

What do the screens show for `O=C(Nc1ccc(S(=O)(=O)Nc2ccccc2)cc1)C1COc2ccccc2O1` (stereo not drawn)?
HPGD block: -29.4%

How did CC1=CS/C(=C(/C#N)C(=O)N2CCCCC2)N1c1ccccc1 do in these assays?
HPGD block: -8.8%

How did COc1ccc(/C(O)=C2/C(=O)C(=O)N(CCN(C)C)C2c2ccc(C)cc2)cc1Cl (stereo not drawn) do in these assays?
HPGD block: -15.0%

Results for O=C(Cn1cc(C(=O)COc2ccccc2)c2ccccc21)NCc1ccco1 ?
HPGD block: -19.7%

What do the screens show for `CCCCCCN(C(=O)CCCCCN1C(=O)NC(c2ccc(-c3ccccc3)cc2)C(C(=O)OCc2ccccc2)=C1C)C(C)C(=O)NCCCC` (stereo not drawn)?
HPGD block: -8.7%&-12.8%

What do the screens show for `Cc1cc(C)nc(SCc2nc3nc(C)cc(C)n3c2Br)n1`?
HPGD block: inconclusive

Results for O=C(Nc1ccc2c(c1)OCO2)C1CCN(S(=O)(=O)c2cccs2)CC1 ?
HPGD block: -4.8%

Results for CS(=O)(=O)N1CCc2cc(C(=O)O)ccc21 ?
HPGD block: -5.5%

What do the screens show for `OCCNCCCCOc1ccc(F)cc1`?
HPGD block: -4.0%

Results for COc1ccc(N=C(C)C2=C(O)c3ccccc3C2=O)cc1 ?
HPGD block: -17.9%

Results for N#CC1=C2SCN(Cc3ccco3)CN2C(=O)CC1c1c(F)cccc1Cl (stereo not drawn) ?
HPGD block: 17.8µM*

Results for CC(C)(C)NC(=O)C(Cc1ccccc1)NS(=O)(=O)c1ccc2c(c1)CCC(=O)N2 (stereo not drawn) ?
HPGD block: 4.1%

Results for O=C(CCSCCc1ccccn1)Nc1c(F)cc(F)cc1Br ?
HPGD block: -3.5%

What do the screens show for `O=[N+]([O-])c1cccc(/C=N/n2cnnc2)c1O`?
HPGD block: -10.6%

Results for CN(C)CCNc1nc(-c2ccco2)c2c(c1C#N)CC(C)(C)OC2 ?
HPGD block: inconclusive

Results for O=[N+]([O-])c1ccc(OC/C=C2\Oc3ccc([N+](=O)[O-])cc3C2N2CCOCC2)cc1 (stereo not drawn) ?
HPGD block: -7.0%

Results for Cc1c(NCc2cc(Cl)cc(Cl)c2O)c(=O)n(-c2ccccc2)n1C ?
HPGD block: -3.9%

Results for COc1ccc(C(C(=O)NC2CCCC2)N2CCc3ccccc32)cc1 (stereo not drawn) ?
HPGD block: -7.7%

Results for O=C(CSc1cn(Cc2cccc(F)c2)c2ccccc12)NCc1ccc(F)cc1 ?
HPGD block: -6.6%

What do the screens show for `C/C(=N\NC(=O)c1ccc(=O)[nH]n1)c1cccnc1`?
HPGD block: -1.3%

How did CCCCC(CC)C/C=C1\CC(C(=O)OCC)Oc2ccccc21 (stereo not drawn) (tested in a mixture with another compound) do in these assays?
HPGD block: -4.6%

How did COc1ccccc1Oc1ccc(S(=O)(=O)N2CCCC2)cc1 do in these assays?
HPGD block: -7.4%

Results for CC(C)CC(=O)NC(NC(=S)Nc1cccc2cccnc12)C(Cl)(Cl)Cl (stereo not drawn) ?
HPGD block: -4.7%

Results for C=CCNC(=O)c1onc(CSc2cc(C)ccc2C)c1C(=O)O ?
HPGD block: -8.2%

What do the screens show for `CCOc1ccccc1N(C(=O)CNC(=O)c1ccco1)C(C(=O)NC1CCCC1)c1cccnc1` (stereo not drawn)?
HPGD block: -9.4%

Results for CCc1ccc(CCC(=O)Nc2ccc(C(C)=O)cc2)o1 ?
HPGD block: -2.9%

What do the screens show for `CC(=O)N1C2(C=CC1(C)C(=O)NCc1cc(F)cc(C(F)(F)F)c1)CCCCC2` (stereo not drawn)?
HPGD block: -14.2%

How did CCOC(=O)c1sc(NS(=O)(=O)c2ccc(C)cc2)nc1C do in these assays?
HPGD block: -9.2%

Results for CCOc1ccc(OCC)c(NC(=O)CN2CCC(NC(=O)c3cccc(F)c3)CC2)c1 ?
HPGD block: -13.0%

How did O=C(CSc1nnc(Cc2ccccc2)o1)N1CCCc2ccccc21 do in these assays?
HPGD block: inconclusive

How did Cc1ccc(-n2c3c(cc(C(=O)NC4CCSC4=O)c2=O)C(=O)CC(C)(C)C3)cc1 (stereo not drawn) do in these assays?
HPGD block: inconclusive

How did O=C(Nc1cccc(F)c1)N1CC[C@@]2(CCCN(C(=O)c3csnn3)C2)C1 do in these assays?
HPGD block: -13.7%

How did CCOc1cccc(N(C(=O)Cc2cccs2)C(C(=O)NC2CCCCC2)c2cccn2C)c1 (stereo not drawn) do in these assays?
HPGD block: -15.5%

How did CCOC(=O)c1[nH]c2ccc(Br)cc2c1NC(=O)CCN1CCCCC1 do in these assays?
HPGD block: -17.4%

What do the screens show for `O=C(Cc1ccc(Cl)cc1)NCCS(=O)c1ccc(Cl)cc1` (stereo not drawn)?
HPGD block: 2.9%

Results for COc1ccc(S(=O)(=O)NN(C)C)cc1N(C)S(=O)(=O)c1ccc(Cl)cc1 ?
HPGD block: -3.7%

How did NC(=O)[C@@H]1CCCNC1 do in these assays?
HPGD block: -6.2%

What do the screens show for `Cc1ccc(C(=O)Nc2ccc3nccnc3c2)cc1`?
HPGD block: inconclusive

What do the screens show for `OC(CNCC1CCCO1)COc1ccc(OCC(O)CNCC2CCCO2)cc1` (stereo not drawn)?
HPGD block: inconclusive

What do the screens show for `Cc1ccc(C2c3c(oc4cc(C)c(C)cc4c3=O)C(=O)N2CCCN2CCOCC2)cc1` (stereo not drawn)?
HPGD block: -6.0%

How did NC(=O)c1sc2nc3c(c(-c4cccs4)c2c1N)CCCCC3 do in these assays?
HPGD block: inconclusive

What do the screens show for `O=C(NCc1cccnc1)C1CCN(S(=O)(=O)c2cccnc2)CC1`?
HPGD block: -12.4%

How did O=[N+]([O-])c1cc(/C=N/O)ccc1SCc1ccccc1Cl do in these assays?
HPGD block: -14.6%

What do the screens show for `CN(C)c1ccc(C2OC(=O)C3(CCCC3)C(=O)C2(C)C)cc1` (stereo not drawn)?
HPGD block: -3.8%

How did CN(C)CCC(c1ccccc1)c1ccccn1 (stereo not drawn) do in these assays?
HPGD block: -11.5%&-4.0%&-2.7%&-15.1%

Results for O=C(O)c1cc(-c2ccccn2)n[nH]1 ?
HPGD block: -3.7%

What do the screens show for `C=CCn1c(N2CCCCCC2)nc2c1c(=O)n(C)c(=O)n2C`?
HPGD block: -5.6%

How did CCCCc1nc2c(c3c1C[C@H](C)OC3)CN(C(=O)N[C@H](C(=O)OC)C(C)C)CC2 do in these assays?
HPGD block: -1.2%

How did CN1CCN(C(=O)c2cc3c(C(F)(F)F)nn(C)c3s2)CC1 do in these assays?
HPGD block: -11.0%

What do the screens show for `CC(=O)c1ccc(NC2c3ncccc3C(=O)N2Cc2ccc(F)cc2)cc1` (stereo not drawn)?
HPGD block: -18.5%

How did COC(=O)c1ccc(C(NC(=O)OCc2ccccc2)/C(=C/[C@@H](C)C(=O)NCc2nc3ccccc3n2C)c2cccnc2)cc1 (stereo partly drawn) do in these assays?
HPGD block: -15.1%

Results for COc1ccc(NC(=O)CSc2nnc(CCC(=O)Nc3ccc(C)c(Cl)c3)n2C)cc1 ?
HPGD block: -5.5%

How did CC(C)c1cccc(C(C)C)c1NC(=O)COC(=O)c1ccc(OCC(=O)Nc2cccc(C(F)(F)F)c2)cc1 do in these assays?
HPGD block: -13.9%

What do the screens show for `COc1ccc(NC(=S)N(CCc2nc3cc(C)c(C)cc3[nH]2)Cc2cccnc2)cc1`?
HPGD block: -13.8%

What do the screens show for `CC(C)(C)c1ccc(C(=O)NC(Cc2ccccc2)C(=O)O)cc1` (stereo not drawn)?
HPGD block: 1.6%

What do the screens show for `COc1cc(N2CCOCC2)ncn1`?
HPGD block: -6.7%

Results for CN(CCC#N)S(=O)(=O)c1ccc2[nH]cc(C(=O)NCCc3ccccc3)c(=O)c2c1 ?
HPGD block: inconclusive

Results for O=C1C2C3CCCC3=C3CCCC3C2C(=O)N1c1cccc(Cl)c1 (stereo not drawn) ?
HPGD block: -10.3%

How did COc1cc(OC)cc(C(=O)N[C@H](C(=O)OCC(=O)Nc2ccc(C)cc2C)C(C)C)c1 do in these assays?
HPGD block: -4.5%

Results for COC(=O)[C@H](Cc1ccccc1)NC(=O)NCc1cccs1 ?
HPGD block: -6.9%

How did CCCCC(=O)Nc1cc([N+](=O)[O-])ccc1Cl do in these assays?
HPGD block: -3.4%

What do the screens show for `N#Cc1c(N)nc2c(c1N)CC(CCl)O2` (stereo not drawn)?
HPGD block: -28.1%

Results for Cc1csc(NC(=O)CSc2ncc(-c3ccccc3)[nH]2)n1 ?
HPGD block: -4.1%

How did COc1ccccc1NCc1ccc([N+](=O)[O-])s1 do in these assays?
HPGD block: -9.9%

How did CCC(CC)C(=O)N1CC(=O)Nc2ccc(Br)cc2C1c1ccccc1 (stereo not drawn) do in these assays?
HPGD block: -5.5%

From PubChem

The list is partial; the hit share may differ from the screen's.
